D2 agonist = activates the human D2 dopamine receptor; P14416; activation, % (no concentration beside the values); 360,000 compounds, 0.084% hits; DiscoveRx PathHunter D2 beta-arrestin, luminescence, 90 min; 100% = 57 uM dopamine signal; in the data active = activation above about 40%; inconclusive = about 15% to 40%; inactive = below about 15%; also: compound concentration not given in the record; the text of the record calls up to 30% inactive
Target sequence (P14416 whole entry, looked up): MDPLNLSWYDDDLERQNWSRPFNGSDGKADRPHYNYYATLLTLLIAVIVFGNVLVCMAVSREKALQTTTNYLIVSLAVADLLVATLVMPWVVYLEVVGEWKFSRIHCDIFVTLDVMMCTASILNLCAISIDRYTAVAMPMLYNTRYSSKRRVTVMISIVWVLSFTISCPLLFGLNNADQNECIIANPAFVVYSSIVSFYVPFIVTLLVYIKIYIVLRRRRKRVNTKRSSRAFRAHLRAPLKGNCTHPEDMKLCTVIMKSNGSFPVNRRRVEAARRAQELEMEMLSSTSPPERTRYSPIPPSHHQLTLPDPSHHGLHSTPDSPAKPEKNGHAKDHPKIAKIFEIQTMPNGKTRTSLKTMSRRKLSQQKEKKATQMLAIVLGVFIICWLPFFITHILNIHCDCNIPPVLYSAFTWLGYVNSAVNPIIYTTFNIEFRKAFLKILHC
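Agonist mode: compounds alone added to overnight-plated D2 PathHunter cells for 90 min at 37 C, with 57 uM final dopamine (EC100) defining full response. Beta-arrestin recruitment detected by chemiluminescent reagent, read after 1 h at ambient temperature.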
CtBP-E1A blk = inhibitors of CtBP/E1A interaction; AlphaScreen GST-E1A/His-CtBP binding, 1536-well; active compounds read low; control for the full effect not named in the record; 340,000 compounds, 0.49% hits; activity change, % (test concentration not listed); in the data active means activity change below about -65%; inconclusive means about -30% to -65%; inactive means above about -30%; also: % is scaled to controls: 0 for no effect and ±100 for the full control effect
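AlphaScreen with 125 nM GST-E1A and 125 nM His-CtBP (5X stocks) in Tris pH 8.0, 300 mM NaCl, BSA, Tween 20, TCEP. Compounds preincubated 2 h at 37 deg C, then glutathione donor/nickel acceptor beads added for 1 h at 37 deg C in dark.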
Six1-Eya2 inh = blocks human Six1 binding to Eya2; Q15475+O00167; AlphaScreen GST-Six1/His-Eya2 binding, biochemical; active compounds read low; control for the full effect not named in the record; activity change, % (no concentration beside the values); 360,000 compounds, 0.56% hits; in the data active = activity change below about -65%; inconclusive = about -30% to -65%; inactive = above about -30%; also: % is scaled to controls: 0 for no effect and ±100 for the full control effect
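Homogeneous AlphaScreen proximity assay pairing GST-Six1 with His-tagged Eya2 (added as 5X mix: 250 nM and 500 nM) in 50 mM Tris pH 8.0, 300 mM NaCl, 1 mM TCEP. Glutathione donor and nickel acceptor beads; 1 h, 37 °C, dark.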
TRPML1 ag = agonists of human TRPML1 channel; TRPML1-expressing cells, Ca2+ dye fluorescence, FDSS; host cell line not named in the record; reference of the full effect not given here; activation, % (concentration not given with the values); 410,000 compounds, 0.12% hits; in the data active = activation above about 50%; inconclusive = about 30% to 50%; inactive = below about 30%; also: 0% is about no effect; the text of the record puts the active cut at 80%
Target sequence (Q9GZU1 whole entry, looked up): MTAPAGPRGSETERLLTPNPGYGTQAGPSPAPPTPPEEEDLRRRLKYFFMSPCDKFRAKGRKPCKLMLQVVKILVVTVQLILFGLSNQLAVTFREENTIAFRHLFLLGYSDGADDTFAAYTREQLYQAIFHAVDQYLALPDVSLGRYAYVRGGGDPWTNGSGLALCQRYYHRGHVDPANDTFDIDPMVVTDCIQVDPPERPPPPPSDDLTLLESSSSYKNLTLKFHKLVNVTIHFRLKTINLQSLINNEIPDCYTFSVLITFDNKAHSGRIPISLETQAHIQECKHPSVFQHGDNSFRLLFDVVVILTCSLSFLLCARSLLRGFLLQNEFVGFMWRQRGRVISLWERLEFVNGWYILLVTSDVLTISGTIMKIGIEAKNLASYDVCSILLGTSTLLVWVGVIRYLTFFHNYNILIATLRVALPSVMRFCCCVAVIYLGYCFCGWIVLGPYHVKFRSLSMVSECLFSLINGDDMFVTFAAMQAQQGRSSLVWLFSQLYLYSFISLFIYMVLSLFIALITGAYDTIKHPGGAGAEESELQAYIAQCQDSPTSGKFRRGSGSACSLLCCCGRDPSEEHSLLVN
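Calcium fluorescence on an FDSS kinetic reader gave the read-out. Tet-induced TRPML1-DL cells were plated overnight, dye-loaded (Ca8 with quencher, 45-90 min, room temperature, dark), then read 110 s after compound addition, and again 110 s after 4uM final 54-4 (EC80).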
TRPML1 inh = inhibitors of human TRPML1 channel | TRPML1-inducible cells, Ca2+ dye fluorescence, FDSS; active compounds read low; inhibition of EC80 agonist-evoked calcium signal | 390,000 compounds, 0.02% hits | activity change, negative = inhibition, % (test concentration not listed) | AID 624415; in the data active means activity change below about -50%; inconclusive means about -30% to -50%; inactive means above about -30%;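 also: stimulus is agonist 54-4 at its EC80 concentration; % is scaled to controls: 0 for no effect and ±100 for the full control effect; compound concentration not given in the record; the text of the record puts the active cut at -80%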
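Tet-induced TRPML1-DL cells loaded with Ca8 no-wash calcium dye were read kinetically on FDSS. Compound addition was followed by EC80 agonist 54-4 (4 uM final); inhibition was read over 110 s.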
PINK1 expr mod = PINK1 expression modulation; Potency, µM (titrated, usually from 76.6 µM), inactives show at the top dose activation (PINK1 increase), usual class: activators; PINK1 immunofluorescence, high-content cytometry, 24 h; 410,000 compounds, 0.2% hits; AID 624263; active = well fitted activation curve with a large enough effect; inconclusive = small, poorly fitted or top-dose-only effect; inactive = flat fitted curve, though single readings scatter; cell line not stated here;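 also: potency is read from the fitted curve at half-maximal effect; % of control where 0% means no effect; nearly all actives have a fitted effect of over 65% in size; a mitochondrial uncoupler was the plate control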
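PINK1 protein level read as immunofluorescence by microplate cytometer in a fixed, stained stable cell line after 24 h exposure to five compound concentrations, with CCCP as control.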
* marks the source's active call; other numbers are inactive results; ? = inconclusive; / = no result given; & = joins results of further samples; [ ] = another dose, or the depositor's remark.

no.	SMILES	Six1-Eya2 inh	CtBP-E1A blk	TRPML1 inh	PINK1 expr mod	D2 agonist	TRPML1 ag
1	CCCNC(=O)NC(=O)COc1ccc(-c2ccc(C#N)cc2)cc1	1	-1	?	0.5%	1.3	0.2
2	CCCn1nc(C(=O)Nc2ccc3c(c2)OCO3)c2ccccc2c1=O	?	/	20	-1.1%	-0.3	1.8
3	NC(=O)c1ncn([C@@H]2O[C@H](CNCc3ccc(OCC(=O)Nc4nccs4)cc3)[C@@H](O)[C@H]2O)n1	2	-1	15	0.4%	-0.6	-0.4
4	Cc1ccc(S(=O)(=O)N(C)CCCC(=O)NCc2ccc3c(c2)OCO3)cc1	-7	1	14	0.3%	-2.9	1.7
5	Cc1csc(=O)n1CCC(=O)OCC(=O)Nc1ccc(F)c(F)c1F	-1	4	6	3.0%	-2.9	-0.3
6	CCc1ccc(/C=C2/C(=O)N(CC)C(=S)N2C)s1	11	11	37	-0.6%	-4.5	5.2
7	O=C1CC(c2ccccc2)Sc2nc3ccccc3n21 (configuration not stated)	16	0	-14	0.4%	-5.1	1.8
8	CN(C(=O)c1ccc(NC(=O)Cc2cccc([N+](=O)[O-])c2)cc1)C1CCCC1	-4	-1	-19	2.2%	-5.7	0.5
9	COc1ccc(CNC(=O)CSc2ncc3c(n2)-c2cc(Cl)ccc2N(Cc2ccccc2)S3(=O)=O)cc1OC	/	/	20	0.2%	/	-0.1
10	CC(=O)NC(NC(=S)Nc1ccc(S(N)(=O)=O)cc1)C(Cl)(Cl)Cl (configuration not stated)	0	-4	2	2.8%	-5.5	-0.3
11	COc1ccc(NS(=O)(=O)c2c(C(=O)N3CCCCCC3)c(C)n(C)c2C)cc1OC	-3	-5	10	1.0%	-3.1	-1.0
12	COc1ccc(C2CC(c3cccs3)=NN2S(C)(=O)=O)cc1OC (configuration not stated)	6	-3	-6	4.5%	0.4	-0.6
13	O=C(NCCCO)/C(=C\c1cn(-c2ccccc2)nc1-c1cccnc1)NC(=O)c1ccccc1	0	/	4	2.0%	1.1	0.3
14	Cn1c(=O)c2cc(NC(=O)NCc3ccc(F)cc3)ccc2n1C	0	-2	/	2.0%	?	-0.8
15	COCCn1c(=S)[nH]c2cc(C(=O)NCCc3ccc(OC)c(OC)c3)ccc2c1=O	-3	2	0	9.8%[38.3 µM]	-2.6	-0.8
16	CCCN(S(=O)(=O)c1ccc(OCC)cc1)S(=O)(=O)c1cccs1	13	7	9	-4.1%	-0.9	5.2
17	COc1ccccc1NC(=O)COC(=O)CCn1c(C)csc1=O	6	6	9	-0.2%	1.1	0.4
18	O=C(O)CC(C(=O)O)C(=Cc1ccccc1)c1ccccc1 (configuration not stated)	-5	3	8	0.2%	-6.2	0.6
19	CNS(=O)(=O)c1cn(CC(=O)N2CCN(c3ccc(C(C)=O)cc3)CC2)cc1S(=O)(=O)NC	/	/	-16	-0.4%	/	1.2
20	CCCS(=O)(=O)NC(=O)C1(C)CCCN(C(=O)c2cccc(C(F)(F)F)c2)C1 (configuration not stated)	2	1	/	3.2%	-2.2	-0.2
21	CCOC(=O)/C(=C/c1ccc(N2CCC(c3ccccc3)=N2)cc1)C(C)=O	-6	-2	5	-1.6%	-0.9	?
22	O=C(CCc1ccccc1)NNC(=O)COc1ccc(Cl)cc1	1	8	-1	4.9%	-1.9	0.6
23	COc1cc(Cl)c(C)cc1NC(=O)COC(=O)CCc1nc2ccccc2c(=O)[nH]1	-2	-25	-18	-2.3%	-0.2	-0.1
24	Cc1ccccc1NC(=O)c1oc(=O)c2ccccc2c1-c1ccccc1	3	14	-6	-1.0%	1.8	3.1
25	COc1cc(NC(=S)N2CCN(CCO)CC2)cc(OC)c1	-2	6	2	-0.3%	3.8	-0.1

2 entries from above, with two lines to a compound.
Second line of a record: Six1-Eya2 inh, CtBP-E1A blk, TRPML1 inh, PINK1 expr mod, D2 agonist, TRPML1 ag
#15 COCCn1c(=S)[nH]c2cc(C(=O)NCCc3ccc(OC)c(OC)c3)ccc2c1=O
  -3, 2, 0, 9.8%[38.3 µM], -2.6, -0.8
#19 CNS(=O)(=O)c1cn(CC(=O)N2CCN(c3ccc(C(C)=O)cc3)CC2)cc1S(=O)(=O)NC
  /, /, -16, -0.4%, /, 1.2

Carrying on:
no.	SMILES	Six1-Eya2 inh	CtBP-E1A blk	TRPML1 inh	PINK1 expr mod	D2 agonist	TRPML1 ag
26	O=c1c2oc3ccccc3c2ncn1Cc1ccccc1F	-4	-1	-9	-3.4%	-2.8	2.8
27	CCc1nc(SCC(=O)Nc2ccc(OC)cc2[N+](=O)[O-])n[nH]1	0	0	-2	0.2%	6.2	0.8
28	O=C(O)CCCNS(=O)(=O)c1ccc(F)cc1	8	2	-9	-0.1%	0.5	-1.2
29	CCc1ccc(-c2nc(CSCC(=O)NC3CC3)c(C)o2)cc1	7	-1	-4	-0.3%	-3.8	1.1
30	Cc1ccc2[nH]c(=O)c(CN(Cc3cccs3)Cc3nnnn3CC3CCCO3)cc2c1 (configuration not stated)	-16	-14	10	/	-1.6	-0.1
31	CN(C)CCN(C(=O)c1ccc2c(c1)OCCO2)c1nc2c(Cl)cccc2s1	-16	-1	12	-0.8%	3.0	1.2
32	CC1(C)CCC(=O)N2CC[C@H]3C[C@H](OC(=O)Nc4ccc(Br)cc4)C[C@@H]1[C@H]32	6	0	12	0.9%	0.7	-0.5&0.3
33	CCN(C[C@H]1N[C@@](C)(C(=O)OC)[C@H]2C(=O)N(C)C(=O)[C@@H]12)C(=O)COc1ccccc1	-9	-24	-6	0.8%	2.1	-0.4
34	Oc1cccc(NC(=S)Nc2ccccc2)c1	4	/	3	0.5%	-7.0	1.0
35	COc1ccc(CNC(=O)CN2C(=O)CSc3ccc(S(=O)(=O)N4CCCC4)cc32)cc1	/	/	-16	0.0%	/	1.3
36	COC(=O)CSc1nnc2n(-c3ccc(OC)cc3)c(=O)c3c4c(sc3n12)CCCCC4	-1	1	10	-0.3%	-2.0	2.8
37	COc1ccc2oc(C(=O)Nc3ccc(S(=O)(=O)N(C)C4CCN(C)CC4)cc3)c(C)c2c1	-22	-6	1	-1.1%	0.5	1.1
38	CC(NC(=O)C1(S(=O)(=O)c2ccc(Cl)cc2)CC1)c1ccccc1 (configuration not stated)	10	-20	-12	-2.1%	-3.3	-0.1
39	CCc1ccccc1NC(=O)c1ccc2c(c1)c(C)c(C)n2Cc1ccccc1	/	/	3	6.0%	/	1.3
40	O=C(NCc1ccc2c(c1)OCO2)c1cc2n(n1)C(C(F)(F)F)CC(c1ccc3c(c1)OCO3)N2 (configuration not stated)	-7	-1	24	-0.6%[38.3 µM]	-1.3	1.2
41	Cc1ccc(NC(=O)COc2ccc(/C=N\NC(=O)c3cccnc3)cc2)cc1C	-28	-13	-11	1.0%	2.8	0.8
42	O=C(CCc1c[nH]c2ccccc12)N1CCCCCCC1	-12	-21	22	-0.6%	-3.5	0.2
43	CC(=O)Nc1ccc(NC(=O)C(C)OC(=O)CCSc2ccccc2Cl)cc1 (configuration not stated)	1	/	-16	2.2%	-2.9	0.1
44	Cn1c(=O)c2sccc2n(Cc2cccc(Br)c2)c1=O	3	-6	-2	4.7%	6.4	1.2
45	Cc1ccc(C(=O)COC(=O)c2ccc3c(c2)C(=O)N(c2cccc4ncccc24)C3=O)cc1C	2	-6	-11	3.7%[38.3 µM]	-0.3	1.4
46	Cc1ccc2nc(NC(=O)C3CC3C)sc2c1 (configuration not stated)	0	-1	-11	0.8%	-1.2	0.5
47	CNC(=S)N(CCc1c(C)[nH]c2ccc(OC)cc12)Cc1cccnc1	-6	-3	-4	0.0%	0.4	-0.7
48	CC(=O)c1ccc(NC(=O)CN2C(=O)CCC2=O)cc1	5	10	10	0.1%	-15	-0.9
49	Cc1cc(N2CCN(C)CC2)nc2ccc(NC(=S)N3CCOCC3)cc12	-1	-2	19	-0.5%	-2.3	0.2
50	COC(=O)n1c(SC)nc2ccccc21	24	0	-1	-0.6%	-1.1	0.6
51	Clc1ccc(Cc2nnc(-c3cccs3)o2)cc1	-3	0	-11	0.8%	-3.5	1.7
52	Cc1c(C(=O)N2CCCC2)oc2c1-c1nn(CC(=O)NCCCOC(C)C)cc1CC2	2	-11	4&-9	0.1%&0.3%	?	1.3&0.7
53	O=C(CSc1ncnc2c1cnn2-c1ccccc1)Nc1ccccc1	3	14	9	/	2.7	0.7
54	CCN(CC)S(=O)(=O)c1cc([N+](=O)[O-])ccc1N1CCC(C(N)=O)CC1	3	3	19	2.5%	0.8	0.9
55	CCOc1ccc(CN(C)CCc2ccccn2)cc1	-1	7	-21	-0.7%	-4.0	-0.1
56	CC(C)(C)C(=O)N1CCC2CC1c1cc(-c3ccc4c(c3)OCO4)ccc12 (configuration not stated)	-9	-10	/	1.4%	-1.1	-0.5
57	COc1ccc(/C=C2\SC(=S)N(CC(=O)NCCO)C2=O)cc1	21	19	7	-2.2%	0.8	1.5
58	CCn1cc(/C=C/C(=O)Nc2c(C)nn(Cc3ccccc3C)c2C)cn1	-8	-3	-14	1.9%	-2.4	-0.7
59	CCN(C(=O)c1cc2c(=O)oc3ccc(C)cc3c2s1)c1cc(OC)ccc1OC	/	/	2	0.9%	/	0.1
60	S=C(Nc1ccc(Cl)cc1)N1CCN(C2CCCCC2)CC1	3	8	-21	4.5%[38.3 µM]	-3.3	0.2
61	COc1ccc(CCNC(=O)CSc2cn(Cc3ccccc3)c3ccccc23)cc1OC	-16	-10	19	1.8%	-4.9	1.3
62	Cc1ccc(S(=O)(=O)N2CCC(C)CC2)c([N+](=O)[O-])c1	-5	/	1	1.3%	6.8	0.1
63	COc1cccc(-c2nc(CS(=O)(=O)CC(=O)NCCc3ccc(OC)c(OC)c3)c(C)o2)c1	-4	2	10&4	-0.4%&-2.0%	-2.6	-1.2&-0.4
64	COCCCNC(=O)c1ccc(CS(=O)(=O)c2ccccc2OC)o1	2	4	4	1.8%	0.1	0.0
65	CCCCCC[N+](C)(C)CC/C=C1/c2ccccc2Sc2ccc(Cl)cc21	-4	-10	-5	1.3%	2.7	3.9
66	O=C(CC12CCC(CC1)C2)NCc1ccc2c(c1)OCO2	-2	-2	-2	2.2%	-1.0	1.9
67	O=C(Nc1ccc(C(F)(F)F)cc1)N1CCN(C(=O)c2ccco2)CC1	8	5	-6	1.0%	-0.7	-0.1
68	COC(=O)c1cc(-c2ccccc2)sc1NC(=O)CN1C(=O)c2ccccc2C1=O	-3	0	-2	3.7%	-3.2	-0.3
69	COC(=O)c1sc(-c2ccc(Cl)cc2)cc1NC(=O)CSCC(=O)O	-4	/	29	2.1%	-5.2	-1.0
70	O=S(=O)(c1ccc(NC(=S)Nc2ccc(OC(F)F)cc2)cc1)N1CCOCC1	13	2	-6	1.8%	-2.8	0.3
71	O=C(NC1=NCCS1)c1cc2ccccc2o1	0	6	4	-1.1%	-1.5	-0.2
72	CCOc1ccccc1NC(=O)C1CCCN1S(=O)(=O)c1ccc2nc(-c3ccccc3)[nH]c2c1 (configuration not stated)	/	/	-18	-0.8%	/	2.1
73	CN(CCCNC(=O)c1cc2c(=O)n(C)c3ccccc3c2s1)Cc1ccccc1	/	/	-1	-0.2%	/	-0.9
74	CCSCc1nc2ccccn2c1Br	-8	/	9	-0.7%	-0.9	1.6

Outcome played no part in choosing rows. About 1% of those tested had a hit in this group.
